Compound activity deposited in PubChem by PCMD.
Biofilm kill mix: mixtures killing C. albicans biofilm | actives 0.02% (n = 120,000) | inhibition, % at 7.6 µM | C. albicans biofilm persisters + clotrimazole, fluorescence viability; primary screen in compound mixtures of four per well;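 active means inhibition above 30.3% in the primary screen of four-compound pools, then above 30% when the compound was retested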;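 further: compounds exposed to preformed 24 h biofilms for 48 h; the number belongs to the whole pool; some results filed as inactive read as strong as hits; inactives centre near 12; 0% = biofilm with clotrimazole alone and 100% = kill control; retested singly at about 60 µM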
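System: C. albicans CAF4-2 wild-type biofilms; Medium: RPMI/MOPS medium, pH 7.0; Reagent: Clotrimazole, 50 µg/mL; Times: biofilm formation 24 h, compound exposure 48 h, 37 °C; Detection: 2-h Alamar Blue fluorescence, 535/590 nm excitation/emission; Evaluation: percent inhibition of biofilm viability.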
Starred values were filed as active, the others as inactive.

SMILES	Biofilm kill mix
COc1ccc(NS(=O)(=O)c2cc(NC(=O)c3cc(F)c(F)c(F)c3F)ccc2N2CCCC2)cc1	9
CCOc1cc(/C=N/Nc2nc(N3CCCCC3)nc(N3CCCCC3)n2)ccc1OC(=O)c1ccco1	17
Cc1ccc(/C=N/NC(=O)c2cccs2)o1	11
S=C(Nc1ccc2nsnc2c1)NC1CCCCC1	6
Cc1ccc(-n2c(C)cc(/C=N/NC(=O)c3ccncc3)c2C)cc1C	5
CC(=O)Nc1nc(C)c(C(C)C)s1	10
CCN(CC)C(=O)c1[nH]cnc1C(=O)Nc1ccc(OC)cc1	9
O=C(CNC(=O)c1ccc(-c2ccccc2)cc1)Nc1ccc(S(=O)(=O)Nc2ncccn2)cc1	4
CSc1ccccc1NC(=O)COc1ccccc1C	8
CN(C)C(=O)c1nnc(Cc2ccc(Cl)cc2)o1	12
COc1cc(/C=N/NC(=O)Cn2cnc3c2c(=O)n(C)c(=O)n3C)cc(OC)c1OC	16
Nc1nc(CSc2ccccc2)nc(N2CCCCC2)n1	10
CC(=O)Nc1cccc(C(=O)/C=C/c2ccc(F)cc2)c1	16
CCn1nnnc1SCC(=O)Nc1nc(C)c(C)s1	8
CCCNC(=O)Cn1cnc2sc(C(=O)N3CCN(Cc4ccc5c(c4)OCO5)CC3)c(C)c2c1=O	16
NC(=O)NCc1ccc(C(=O)OCc2ccncc2)cc1	17
C/C(=N\NC(=O)c1ccco1)c1ccc(NC(=O)c2cccs2)cc1	6
O=C(N/N=C/c1cccc(F)c1)c1ccc(Cl)cc1	7
CCCCNC(=O)Nc1ccccc1C(=O)NCCC	8
CCCCn1nnnc1SCC(=O)NNC(=O)c1ccco1	-6
O=c1[nH]c(SCc2ccc(F)cc2Cl)nc2ccccc12	9
Cc1ccc(NC(=O)CNS(=O)(=O)c2cccs2)cc1F	19
NS(=O)(=O)c1ccc(N/C=C\C(=O)c2cccc3ccccc23)cc1	6
O=[N+]([O-])c1ccc(COc2ccccc2/C=N/O)cc1	1
Cc1ccc(CC(=O)N2CCN(c3ccccc3F)CC2)cc1	11
CCN(CC)c1ccc(NC(=S)NC(=O)c2ccco2)cc1	14
Cc1cccc(C(=O)N[C@H](C(=O)Nc2nc(C)cs2)C(C)C)c1	6
CCn1c2ccccc2c2cc(CC(N)=O)ccc21	25
CC1Cn2c(nc(=O)c3c2NCN(CCc2ccccc2)C3)S1 (centres undefined)	24
COc1ccc(C(=O)COC(=O)c2nn(C)c(=O)c3ccccc23)c(OC)c1	14
CCOC(=O)c1sc2nc3c(SCC(=O)O)cc(C(=O)c4cc(F)ccc4O)cn3c(=O)c2c1C	11
O=C(NCc1ccc2c(c1)OCO2)c1cc(-c2ccccn2)nc2ccccc12	-1
Cc1ccccc1N=CC1=C(O)c2ccccc2C1=O	19
O=C(NCc1ccccc1)NC1(C(=O)N2CCN3CCCC3C2)CCCCC1 (centres undefined)	16
C/C(=N\NC(=O)c1cccnc1)c1nnn(-c2nonc2N)c1C	11
CN(C)c1ccc(/C=N/NC(=O)C(=O)/C=C2\NC3(CCCC3)Cc3ccccc32)cc1	-1
Cc1ccccc1C(=O)Nc1nnc(-c2cccnc2)o1	21
CC(=O)C1=C(C)NC(=O)NC1c1cccc([N+](=O)[O-])c1O (centres undefined)	38
CCc1ccc(C(=O)NCc2cnn(C)c2)s1	-8
CC(C)NC(=S)N=Nc1c(O)[nH]c2ccc(C(C)C)cc12	-4

Copied from the list:
`CC(=O)C1=C(C)NC(=O)NC1c1cccc([N+](=O)[O-])c1O` (centres undefined) – Biofilm kill mix = 38
`CCc1ccc(C(=O)NCc2cnn(C)c2)s1` – Biofilm kill mix = -8

Part of the list above, set out differently.
| Molecule | Biofilm kill mix |
| --- | --- |
| Cc1ccccc1C(=O)Nc1nnc(-c2cccnc2)o1 | 21 |
| C/C(=N\NC(=O)c1cccnc1)c1nnn(-c2nonc2N)c1C | 11 |
| Cc1ccccc1N=CC1=C(O)c2ccccc2C1=O | 19 |
| CC(C)NC(=S)N=Nc1c(O)[nH]c2ccc(C(C)C)cc12 | -4 |

(more compounds)
SMILES	Biofilm kill mix
CC(/C=N/n1c(-c2cccnc2)n[nH]c1=S)=C\c1ccco1	14
O=C(Nc1nnc(-c2ccc(Cl)cc2)o1)Nc1ccccc1F	16
NC(=S)N/N=C/c1ccc(-c2cc(Cl)c(Cl)cc2Cl)o1	35
CCCCNC(=O)c1ccc(/C=C2\Oc3ccccc3N(C)C2=O)cc1	10
O=C(NNc1ccc(O)cc1)c1ccc(Br)cc1	27
CN(C)c1ccc(/C=C(\C#N)C(=O)c2ccccc2)cc1	22
O=C(CNC1CCCCCC1)Nc1ccccc1N1CCOCC1	11
COc1ccc2cc(C(=O)C3CCCN(C(=O)CCc4cnn(C)c4)C3)ccc2c1 (centres undefined)	5
CC(C)Nc1nc(NC(N)=S)nc(NC(C)C)n1	19
COc1ccc(C2OC3=C(Nc4cc(C)c(C)cc4N3)C2=O)cc1 (centres undefined)	5
COc1ccc(/C=C/C(=O)NCC(=O)N/N=C/c2ccc(OC)cc2)cc1	19
Cc1ccnc2nc(C(=O)OCC(=O)N(CC(C)C)CC(C)C)nn12	7
O=C(Nc1cccc(Cl)c1)/C(=C\c1cccnc1)NC(=O)c1ccco1	6
CCCn1c(SCC(=O)NNC(=O)c2ccccc2)nnc1-c1cccnc1	2
O=C(N/N=C/c1c(O)n(-c2ccc(Cl)cn2)c(=O)c2ccccc12)c1ccncc1	13
CCCN1C(=O)c2cc(C(=O)Nc3cccc(C(C)=O)c3)ccc2C1Nc1cccc(C(C)=O)c1 (centres undefined)	19
Cc1cc(C)c(OCCCON2C(=O)CCC2=O)c(Br)c1	7
Cc1ccc(S(=O)(=O)NCc2ccc(/C=C(/C#N)C(=O)NCc3ccccc3)o2)cc1	11
COc1ccc(-c2cc(C(=O)Nc3cc(OC)cc(C(=O)Nc4cccc(C(F)(F)F)c4)c3)[nH]n2)cc1	13
Cc1cccc(N2C(=O)C3C4CC(=O)C(c5ccccc54)C3C2=O)c1C (centres undefined)	12

By substructure, the entries above containing a thiophene ring, fused or not (six)
SMILES	Biofilm kill mix
Cc1ccc(/C=N/NC(=O)c2cccs2)o1	11
CCCNC(=O)Cn1cnc2sc(C(=O)N3CCN(Cc4ccc5c(c4)OCO5)CC3)c(C)c2c1=O	16
C/C(=N\NC(=O)c1ccco1)c1ccc(NC(=O)c2cccs2)cc1	6
Cc1ccc(NC(=O)CNS(=O)(=O)c2cccs2)cc1F	19
CCOC(=O)c1sc2nc3c(SCC(=O)O)cc(C(=O)c4cc(F)ccc4O)cn3c(=O)c2c1C	11
CCc1ccc(C(=O)NCc2cnn(C)c2)s1	-8

(more compounds)
SMILES	Biofilm kill mix
CSc1nc2ncc(-c3ccsc3)c(N)n2n1	9
Cc1ccc(C(=O)N/C(=C/c2ccc(F)cc2)C(=O)NCc2ccncc2)cc1	16
CCOC(=O)Cc1nnc(Nc2ccc(C)cc2C)c2ccccc12	12
COc1cccc(CNCc2ccc(C(=O)O)cc2)c1OC	12
CCC(C)C(NC(N)=O)C(=O)Nc1ccc(C(=O)OC)cc1 (centres undefined)	11
Cc1ccc(C(c2c(C)nn(-c3ccccc3)c2N)c2c(C)nn(-c3ccccc3)c2N)cc1	16
COc1ccccc1NC(=O)Nc1cc(NC(=O)Nc2ccccc2OC)c(C)nc1C	-6
O=C(COCc1nc2ccccc2c(=O)[nH]1)NCC1CCCCC1	8
Cc1cc(C(=O)CN2C(=O)C(=O)N(CC(C)C)C2=O)c(C)n1-c1ccccc1F	5
CCOC(=O)c1ccc(NC(=S)N(CCCN2CCCC2)Cc2cccs2)cc1	10
CCC(Oc1ccccc1)C(=O)NC1CCSC1=O (centres undefined)	18
Cc1ccc(-c2nnc(SCCC(=O)N3CCOCC3)o2)cc1	13
Cc1ccccc1Cn1nc(C)c(NC(=O)/C=C/c2cnn(C)c2C)c1C	12
CN(c1ccc(C(=O)Nc2ccc(S(=O)(=O)N3CCCC3)cc2)cc1)S(C)(=O)=O	0
Cn1c(CN2CCCC(C(=O)c3ccc4c(c3)OCO4)C2)nc2ccccc21 (centres undefined)	11
C/C(=N\NC(=O)CSc1nnc(C)s1)c1ccc(O)cc1	-2
CCCCNC(=S)N(C)/N=C/c1ccccc1F	16
CCN(CC)S(=O)(=O)c1ccc(NS(=O)(=O)c2ccc(OC)c([N+](=O)[O-])c2)cc1	-2
COc1ccc(Nc2nc(-c3ccccc3)c(C(=O)Nc3cccnc3)s2)cc1	7
NNC(=S)NC1CC2CC1C1C=CCC21 (centres undefined)	10
OCCC1CN(Cc2cccn2-c2ncccn2)CCN1C1CCCC1 (centres undefined)	8
COC(=O)COc1cccc2c(=O)n(CC(=O)NCCc3ccccc3)ccc12	1
S=C(NC1CCCCC1)N1CCN(Cc2ccccc2)CC1	15
O=C(NC(Cc1c[nH]c2ccccc12)C(=O)N1CCOCC1)c1cccs1 (centres undefined)	7
COC(=O)c1ccc(OCC(O)CN(CCO)CC(O)Cn2ccc3ccccc32)cc1 (centres undefined)	9
O=C(Nc1nc2ccc(Cl)cc2s1)c1ccc(N2CCCCC2)c([N+](=O)[O-])c1	16
CC(=O)C1=C(C)NC(=S)NC1c1cccc([N+](=O)[O-])c1 (centres undefined)	12
Cc1occc1-c1nnc(-c2cc([N+](=O)[O-])cc([N+](=O)[O-])c2)o1	15
Cc1ccc(CC2CC(=O)N(c3ccc(C)cc3)C2=O)cc1 (centres undefined)	17
Cc1csc(NC(=O)CSc2nnc(C)c(=O)n2N)n1	-2
Cc1nc(NC(=O)c2cc(-n3cnnc3)ccc2Cl)ccc1Br	19
CC(C)N1CCC(NC(=O)Nc2ccccc2)CC1	24
COc1ccc(CC(NC(C)=O)C(=O)NC2CCN(c3c4c(nc5ncnn35)CCC4)CC2)cc1 (centres undefined)	8
COc1ccc(CN2C(=O)c3ccccc3C2=O)cc1C(=O)Nc1ccc(C)cc1C	3
Cc1nnc(N(C)C(=O)c2ccncc2)s1	23
Cc1nn(C)c(C)c1NC(=O)CCl	21
Cc1ccc(C(=O)NC(=S)Nc2ccccc2C)cc1	24
Cc1ccc2ccc(C(Nc3cccc(C(F)(F)F)c3)c3cccnc3)c(O)c2n1 (centres undefined)	2
COc1ccc(/C=C/C(=O)c2ccc(OC)cc2O)cc1	18
Cc1cccc(Cn2c(Cc3ccccc3)nc3ccccc32)c1	11
CN(c1ccccc1C(=O)Nc1ccc(S(=O)(=O)N2CCOCC2)cc1)S(=O)(=O)c1ccccc1	-12
COc1ccccc1N(C1=NCCCS1)S(=O)(=O)c1ccc(C(C)(C)C)cc1	3
CN(CC(=O)Nc1cccc(F)c1)CC(=O)Nc1cccc(S(=O)(=O)N2CCCCCC2)c1	20
O=S(=O)(c1ccc(NC(=S)NN=C2CCCCC2)cc1)N1CCOCC1	6
Cc1cc(C)c(C#N)c(SC(C(=O)NC(C)(C)C)c2ccccc2)n1 (centres undefined)	11
C#CCNC(=O)C1=C[C@@H](C(C)(C)C)C[C@@H](OCc2ccc(CO)cc2)O1	14
CSc1cccc(NC(=O)OC2CCCCCCCCCCC2)c1	6
CCn1nc(NC(=O)Cc2ccc(OC)cc2)c2cc3cccc(C)c3nc21	5
CC1(N2CCOCC2)C(=O)c2ccccc2C1=O	15
Cc1ccc(NC(=O)C[n+]2ccn(C3=C([O-])c4ccccc4C3=O)c2)cc1	12
(continued)
SMILES	Biofilm kill mix
COc1ccc(N2C(=O)Cc3c2nc(N)c(C#N)c3N)cc1	17
Cc1ccc(C2CCN(C(=S)NC(C)C)C2)cc1 (centres undefined)	13
Cc1cccc(NC(=S)NC2CCCC2)c1	8
CCCCC(=O)Nc1ccc(C(=O)NNC(=S)NC(=O)c2cccs2)cc1	17
Cc1c(C(=O)Nc2ccccc2)sc2nc[nH]c(=O)c12	2
O=C(CSc1nc2ccccc2n1CC(=O)N1CCOCC1)N1CCCC1	9
CC(C)[C@H](NC(=O)c1ccccc1)C(=O)OCC(=O)NCCc1ccc(F)cc1	13
COc1cc(/C=N/N2CCOCC2)ccc1OCc1ccccc1	12
CCOC(=O)C(NC(=O)NCc1ccc(OC)cc1)(OCC)C(F)(F)F (centres undefined)	9
CCOC(=O)c1nnn(CC(=O)NC(=O)Nc2cccc(CC)c2)c1C(=O)OCC	10
CC(C)OC(=O)/C(C#N)=C/c1ccc(-c2ccc(SC(F)F)cc2)o1	9
CCn1nc(C)c(NC(=O)/C=C/c2ccc(OC)c(COc3ccc(Br)cc3)c2)c1C	17
O=C(COc1cccc(Br)c1)N/N=C1\CCCc2ccccc21	7
CSC1=N/C(=C\c2cccnc2)C(=O)N1c1ccccc1	11
C=CCn1c(=S)[nH]c2scc(-c3ccco3)c2c1=O	8
CCN1CCN(c2cc(C)c3cc(NC(=S)N4CCN(c5ccccc5F)CC4)ccc3n2)CC1	13
COc1ccc(-n2c(SCC(=O)O)nnc2-c2ccc(NC(=O)c3ccccc3)cc2)cc1	39
Cc1ccccc1-n1c(C)nnc1SCC(=O)N1CCc2ccccc2C1	13
Cc1ccc(C(=O)NCC(=O)Nc2ccccc2C(F)(F)F)cc1	12
Cc1c(Cl)cnc(NC(=O)COC(=O)Cc2coc3ccc4ccccc4c23)c1Cl	19
CCCN1C(=O)/C(=C/c2c(N3CCNC(=O)C3CC(=O)OCC)nc3c(C)cccn3c2=O)SC1=S (centres undefined)	16
O=C(CSc1ccc(-c2nc3ccccc3[nH]2)cn1)Nc1ccc(S(=O)(=O)NC2CC2)cc1	1
O=C(COc1ccccc1[N+](=O)[O-])NCc1cccnc1	9
Cc1c(C(=O)O)cccc1-c1ccc(/C=N/Nc2ccc(Br)cc2)o1	11
COc1ccc(NC(=O)c2oc3ccc(S(=O)(=O)N4CCOCC4)cc3c2C)cc1	12
Cc1c(NS(=O)(=O)c2ccc3nc(COc4ccccc4Cl)[nH]c3c2)c(=O)n(-c2ccccc2)n1C	8
CCCc1ccc(OCc2nc(-c3ccc(NC(=O)c4cccs4)cc3)no2)cc1	9

These rows are one share of the data; count on the stated rates, not on these rows.
